Source: PubChem
FH mod: Identification of activators of human fumarate hydratase by quantitative high-throughput screening; Fumarate hydratase, mitochondrial (Homo sapiens), P07954; FH coupled MDH/diaphorase resazurin fluorescence, 15 min; Potency, µM (highest dose often 79.9 µM), without a hit: at the highest dose activity change, negative = inhibition, most hits filed as inhibitors; 0.22% of 54,000 active; further: potency means the concentration at half of the fitted maximal effect; on the % scale 0 is the no-effect control and ±100 the full control effect; the screen sought activators but most active calls are inhibition curves; nearly all actives have a fitted effect of over 45% in size
Target sequence (P07954 whole entry, looked up): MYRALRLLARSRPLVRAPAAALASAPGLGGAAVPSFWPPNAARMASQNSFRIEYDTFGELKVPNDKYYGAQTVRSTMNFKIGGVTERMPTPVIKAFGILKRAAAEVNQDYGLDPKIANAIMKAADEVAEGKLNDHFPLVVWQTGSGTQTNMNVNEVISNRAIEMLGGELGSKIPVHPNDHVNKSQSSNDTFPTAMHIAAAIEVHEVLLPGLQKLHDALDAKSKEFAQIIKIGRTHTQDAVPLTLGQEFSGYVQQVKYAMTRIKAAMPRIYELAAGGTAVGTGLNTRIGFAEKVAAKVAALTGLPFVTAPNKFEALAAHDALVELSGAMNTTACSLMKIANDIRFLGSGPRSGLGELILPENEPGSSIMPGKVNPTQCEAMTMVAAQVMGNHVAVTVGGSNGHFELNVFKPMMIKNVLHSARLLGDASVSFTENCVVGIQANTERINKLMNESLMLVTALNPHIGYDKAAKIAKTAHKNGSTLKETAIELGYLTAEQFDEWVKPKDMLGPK
PTAP-TSG101 blk: qHTS Validation Assay for Inhibitors of HIV-1 Budding by Blocking the Interaction of PTAP/TSG101: Sytravon Library Screen. Tumor susceptibility gene 101 protein (Homo sapiens), Q99816. Fluorescence polarization, FITC-PTAP peptide/Tsg101, 20 min. Potency, µM (series often up to 115 µM), inactives show at the top dose activity change, negative = inhibition, actives largely listed as inhibitors. 44,000 tested, under 10 active. AID 1347069, 2019; further: potency means the concentration at half of the fitted maximal effect; 0% is about no effect
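The Tsg101 binding domain, at 10 uM final, is mixed with compound and a FITC peptide bearing the PTAP motif (50 nM final). After 20 min at r.t., polarization is measured; actives defined by CRC class, efficacy cut-off 60% inhibition.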
p53null 39C tox: qHTS Screen for Compounds that Selectively Target Cancer Cells with p53 Mutations: Cytotoxicity of p53 Null Cells at the Nonpermissive Temperature | H1299 p53-null (neo) cells, 39C, ATPlite viability, 24 h | AID 904, 2007 | Potency, µM (series often up to 46.1 µM), for the others: at the top dose activity, negative = cell killing, most hits filed as cytotoxic | 0.97% of 55,000 active;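 further: potency means the concentration at half of the fitted maximal effect; 0% = DMSO only and -100% = full killing by 100 µM tamoxifen; nearly all actives have a fitted effect of over 50% in size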
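Concentration-response (up to 46 uM) was run for 24 h at the nonpermissive 39C on H1299-p53A138V or H1299-neo cells. ATP content was measured with ATPlite luminescence. AC50 values were Hill-modeled after normalizing between DMSO and 100 uM tamoxifen killing.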
p53null 32C tox: qHTS Screen for Compounds that Selectively Target Cancer Cells with p53 Mutations: Cytotoxicity of p53 Null Cells at the Permissive Temperature; H1299-neo p53 null cells, ATP luminescence, 24 h, 32C; Potency, µM (series often up to 46.1 µM), without a hit: at the highest dose activity change, negative = cytotoxicity, usual class: cytotoxic; 0.62% of 55,000 active;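 further: potency means the concentration at half of the fitted maximal effect; 0% = DMSO only and -100% = full killing by 100 µM tamoxifen; nearly all actives have a fitted effect of over 55% in size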
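Luminescent ATP readout gave cell viability of p53-null H1299-neo cells after a 24 h compound exposure at the permissive 32C. Titrations ran up to 46 uM, and AC50s were fitted with the standard Hill equation.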
B2AR arrestin ag: qHTS assay of beta-arrestin-biased ligands of beta2-adrenergic receptor: NCGC Sytravon Library Screen. HTLA Tango cells, beta-arrestin recruitment, luciferase luminescence, 18 h. 44,000 tested, under 10 active. Beta-2 adrenergic receptor (Homo sapiens), P07550. Potency, µM (top dose mostly 46.1 µM), without a hit: at the highest dose activation, hits mostly activators;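 further: potency means the concentration at half of the fitted maximal effect; 0% = DMSO and full agonism = EC100 isoproterenol or metaproterenol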
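Tango cells (recombinant beta2-AR, beta-arrestin, tTA-driven luciferase), 1500/well in DMEM 1% FBS, treated 18 h at 37 °C with compounds up to 46 µM; luciferin mix added, luminescence read after 15 min; %activity curves fitted and curve-classed.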
GALK inhibitor: qHTS Assay for Inhibitors of Human Galactokinase (GALK): NCGC Sytravon Library Screen; recombinant GALK, Kinase-Glo ATP luminescence, 1 h; P51570; 44,000 tested, under 10 active; Potency, µM (highest dose often 57.5 µM), for inactives: at the top dose activity, negative = inhibition, most hits filed as inhibitors;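 further: plate controls were full GALK reaction for no effect and reaction lacking GALK for full effect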
Target sequence (P51570 whole entry, looked up): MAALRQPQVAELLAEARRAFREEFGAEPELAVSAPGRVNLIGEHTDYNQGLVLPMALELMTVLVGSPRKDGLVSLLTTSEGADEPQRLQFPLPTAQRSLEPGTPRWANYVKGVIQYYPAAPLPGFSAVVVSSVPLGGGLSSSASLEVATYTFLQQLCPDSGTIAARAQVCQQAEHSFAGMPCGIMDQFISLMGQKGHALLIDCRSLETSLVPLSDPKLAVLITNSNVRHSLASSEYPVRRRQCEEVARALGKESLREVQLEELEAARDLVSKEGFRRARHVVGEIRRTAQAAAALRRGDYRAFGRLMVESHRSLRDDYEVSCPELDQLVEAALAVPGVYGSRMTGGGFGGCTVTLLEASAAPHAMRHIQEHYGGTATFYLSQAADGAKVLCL
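5 nM GALK; 35 uM ATP; 100 uM D-galactose; 20 mM HEPES pH 8.0, 5 mM MgCl2, 60 mM NaCl, 1 mM DTT, 0.01% BSA; 1 h RT; Kinase-Glo Plus luminescence.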
Starred values were filed as active, the others as inactive; ? = inconclusive; . = not tested or not shown; [ ] = another dose, or the depositor's remark. The call rests on the fitted dose curve; in most records, active means well fitted curve in the direction sought with a large enough effect; inconclusive means small, poorly fitted or top-dose-only effect, or another doubt; inactive means no such curve, though single readings can be large; an effect the other way counts as inactive or inconclusive. This is a subset. The share of hits here may be higher or lower than overall.

canonical_smiles,FH mod,PTAP-TSG101 blk,p53null 39C tox,p53null 32C tox,B2AR arrestin ag,GALK inhibitor
Cc1ccc(NC(=O)CN2C(=O)c3ccccc3Sc3ccc(C(=O)N4CCOCC4)cc32)c(Cl)c1,-7%,1%,7%,-10%,0%,2%
COc1ccc(C2=NC3(CCCCCC3)N(CC(=O)Nc3ccc(C)c(C)c3)C2=O)cc1,-20%,2%,-9%,8%,-4%,7%
CCOc1ccc(C(=O)c2cn(CC(=O)Nc3ccc(F)cc3)c3cc4c(cc3c2=O)OCO4)cc1,-16%,-5%,1%,41%[activator],0%,-1%
O=C(c1ccccc1Cl)n1nc(-c2ccco2)nc1NCc1cccs1,-5%,-7%,-7%,3%,0%,0%
CCN(CC)CCOC(=O)c1ccc(NC(=O)Cn2ncc3c([nH]c4ccc(C)cc43)c2=O)cc1,3%,3%,-27%,3%,0%,0%
COc1cccc(-c2nn(C)c3sc(C(=O)N4CCN(c5cccc(C(F)(F)F)c5)CC4)cc23)c1,-15%,-9%,-5%,14%,0%,1%
COc1ccc(-c2cc(C(F)(F)F)c(C#N)c(SCC(=O)Nc3cccc(C)c3)n2)cc1,4%,0%,-14%,-4%,1%,7%
O=C1[C@@H]2CSC(c3ccc(Cl)cc3)N2C(=O)N1c1ccccc1 (stereo not given in full),-4%,-6%,-2%,-9%,0%,8%
COc1ccc(C2=NC(C)(C)N(CC(=O)Nc3cccc(C)c3)C2=O)cc1,-1%,-2%,8%,13%,-3%,-3%
CCc1ccccc1-n1c(SCC(=O)Nc2ccc(C)cc2)nc2n[nH]c(C)c2c1=N,?,0%,-8%,30%[activator],-1%,-1%
Cc1ccc(C(NC(=O)Cc2cccs2)C(=O)Nc2ccc(C(C)C)cc2)cc1 (stereo not given),-3%,2%,4%,-4%,0%,-5%
COc1ccc(CNc2nc(-c3ccco3)nn2C(=O)c2ccccc2Cl)cc1,-16%,0%,-29%,?,-1%,2%
CCc1ccc(NC(=O)C(CC)n2c(=O)c(-c3ccccc3NC(C)=O)nc3ccccc32)cc1 (stereo not given),-28%,0%,6%,7%,-1%,2%
O=C(O)c1ccc2nc(-c3cc4cc(F)ccc4oc3=O)[nH]c2c1,-22%,-1%,-6%,-16%,-2%,0%
CCc1cccc(CC)c1N(COC)C(=O)Cn1c(C)nc2ccccc21,-5%,-9%,-9%,6%,0%,-3%
COc1ccc(-n2ccnc(NCc3ccccc3OC)c2=O)cc1,25%,0%,-14%,-8%,1%,1%
CCCCOc1cccc(C(=O)Nc2cccc(-c3nc4ncccc4o3)c2C)c1,2%,-4%,12%,28%,0%,1%
CCOC(=O)c1cc(-c2ccc(F)cc2)n(CC(=O)NC2CCCCCC2)c1C,0%,-5%,8%,6%,-2%,-1%
COc1ccc(OC)c(NC(=O)c2cn(CC(C)C)c(=O)c3cc(OC)c(OC)cc23)c1,-28%,-1%,1%,1%,-2%,0%
CCc1ccc(NC(=O)CCn2c(-c3ccc(OC)cc3)cc(C(C)=O)c2C)cc1,-9%,-1%,-3%,17%,-1%,0%
CCN(CC)CCCNC(=O)CSc1nc2nc(C)c(Cc3c(F)cccc3Cl)c(C)n2n1,-19%,3%,1%,12%,-2%,7%
Cc1ccc(S(=O)(=O)c2cnc(SCC(=O)Nc3cc(C)cc(C)c3)nc2N)cc1,-18%,1%,-20%,9%,0%,0%
Cc1cc2c(cc1S(=O)(=O)N(CCO)Cc1ccccc1)OCC(=O)N2,-6%,-1%,4%,6%,0%,1%
Cc1nn2c(-c3ccco3)ccnc2c1-c1ccc(F)cc1,5%,0%,.,.,1%,3%
COc1ccc(N2CC3=C(C2=O)C(c2ccc(O)c(OC)c2)NC(=O)N3C)cc1 (stereo not given),-5%,-5%,?,7%,0%,6%
COc1ccc(OC)c(S(=O)(=O)Nc2ccc3[nH]c(=O)[nH]c3c2)c1,-22%,1%,-23%,?,1%,4%
O=C1Nc2c(c(=O)[nH]c(=O)n2-c2ccc(Cl)cc2)C1(NS(=O)(=O)c1ccccc1)C(F)(F)F (stereo not given),5%,0%,-8%,-3%,-1%,0%
Cc1ccc(S(=O)(=O)Nc2ccc3c(c2)CCCN3C(=O)c2cccs2)cc1,?,-7%,24%,1%,-1%,-3%
COC(=O)c1ccccc1NC(=O)c1cc(-c2ccccc2O)no1,11%,-9%,2%,-1%,0%,-1%
Cc1cc2c(cc3c(=O)n(CC(=O)NCc4ccccc4Br)ncn32)s1,9%,-1%,-9%,5%,-1%,8%
COc1ccc(-n2ncc3c(NC(C)(C)CO)ncnc32)cc1,-7%,2%,?,13µM*,0%,0%
COc1ccccc1CNC(=O)c1cc2ccc3ccc(C)[nH]c3c2n1,?,-2%,-9%,3%,2%,-4%
COc1ccccc1CNC(=O)c1cnc2c(-c3ccccc3)c(C)nn2c1C,2%,10%,-3%,-1%,-1%,-12%
COc1ccccc1C(=O)n1nc(-c2ccco2)nc1NCc1ccc(Cl)cc1,-23%,1%,-4%,-11%,0%,-9%
O=[N+]([O-])c1cn2c(n1)OC[C@@H](OCc1ccc(-c3ccc(OC(F)(F)F)cc3)nc1)C2,2%,.,.,.,.,.
CCCNC(=O)CN1CCN(c2ncc(NC(=O)c3ccc(Cl)cc3)cc2C(=O)O)CC1,-10%,-1%,8%,-8%,-3%,2%

Four entries from above, with each value named:
> Cc1cc2c(cc3c(=O)n(CC(=O)NCc4ccccc4Br)ncn32)s1
- FH mod: 9%
- PTAP-TSG101 blk: -1%
- p53null 39C tox: -9%
- p53null 32C tox: 5%
- B2AR arrestin ag: -1%
- GALK inhibitor: 8%
> COc1ccc(-n2ncc3c(NC(C)(C)CO)ncnc32)cc1
- FH mod: -7%
- PTAP-TSG101 blk: 2%
- p53null 39C tox: ?
- p53null 32C tox: 13µM*
- B2AR arrestin ag: 0%
- GALK inhibitor: 0%
> COc1ccccc1CNC(=O)c1cc2ccc3ccc(C)[nH]c3c2n1
- FH mod: ?
- PTAP-TSG101 blk: -2%
- p53null 39C tox: -9%
- p53null 32C tox: 3%
- B2AR arrestin ag: 2%
- GALK inhibitor: -4%
> COc1ccccc1CNC(=O)c1cnc2c(-c3ccccc3)c(C)nn2c1C
- FH mod: 2%
- PTAP-TSG101 blk: 10%
- p53null 39C tox: -3%
- p53null 32C tox: -1%
- B2AR arrestin ag: -1%
- GALK inhibitor: -12%

The list continues.
canonical_smiles,FH mod,PTAP-TSG101 blk,p53null 39C tox,p53null 32C tox,B2AR arrestin ag,GALK inhibitor
CCCOc1ccc(CNC(=O)Cn2ncn3c(cc4sc(CC)cc43)c2=O)cc1,-2%,-1%,17%,-2%,-1%,-1%
COC(=O)c1nnn(CC(=O)NC(=O)Nc2ccc(F)cc2)c1C(=O)OC,22%,-6%,5%,4%,0%,5%
Cn1cnc(S(=O)(=O)N2CCCC(C(=O)NCc3ccccc3)C2)c1 (stereo not given),-1%,-3%,-15%,-1%,0%,2%
CC(C)(C)c1ccc(C2=NC(C)(C)N(CC(=O)Nc3ccc(F)c(F)c3)C2=O)cc1,-5%,1%,13µM*,3%,-4%,7%
CCOC(=O)c1cccc(NC(=O)c2cc3c(=O)n(Cc4ccccc4)ccc3nc2C)c1,?,-5%,7%,18%,1%,2%
COc1ccc(N2C(=O)CSC23C(=O)N(Cc2ccccc2F)c2ccccc23)cc1Cl (stereo not given),-24%,0%,26%,7%,7%,1%
CCOc1ccc(CCNC(=O)c2cnc3c(-c4ccccc4)c(C)nn3c2C)cc1OCC,7%,-2%,-5%,-6%,-1%,-2%
COc1ccc(CNc2nc(-c3ccc(Cl)cc3)nn2S(=O)(=O)c2ccc(C)cc2)cc1,-22%,-1%,2%,4%,1%,0%
COc1ccc(CCNC(=O)CCc2c(C)nc3c4c(C)cc(C)nc4nn3c2C)cc1OC,?,-4%,-10%,0%,-3%,5%
Cc1ccc(S(=O)(=O)NC2(C(F)(F)F)C(=O)Nc3c2c(=O)[nH]c(=O)n3-c2ccccc2)cc1 (stereo not given),-12%,-4%,-9%,-12%,0%,8%
CC(C)CC(=O)NC1(C(F)(F)F)C(=O)Nc2c1c(=O)[nH]c(=O)n2-c1ccccc1 (stereo not given),-8%,6%,1%,-3%,0%,0%
Cc1noc(CN(C)c2ncnc3ccc(-c4ccc5c(c4)OCO5)cc23)n1,-5%,.,.,.,.,.

The results go on.
Values run as follows: FH mod	PTAP-TSG101 blk	p53null 39C tox	p53null 32C tox	B2AR arrestin ag	GALK inhibitor
> COc1ccc(OCc2nc3ccccc3n2Cc2ccc(C(C)(C)C)cc2)cc1
→ ?	-2%	?	34%[activator]	0%	0%
> CCCNc1nc(NCc2ccccc2OC)c2cnn(C)c2n1
→ -12%	-10%	-17%	-12%	0%	0%
> CCOc1cccc(C(=O)Nc2ccc(-c3nc4ncccc4o3)cc2C)c1
→ -32%	2%	-1%	-16%	-1%	2%
> CCS(=O)(=O)N1CCc2cc(C(=O)N3CCN(c4ccccc4)CC3)ccc21
→ -5%	2%	?	-6%	-3%	3%
> COc1ccc(NC(=O)c2cnc[nH]2)cc1
→ 0%	-7%	7.9µM*	18µM*	0%	10%
> Cc1ccc(NC(=O)CN2C(=O)c3ccccc3Sc3ccc(C(=O)N4CCCC4)cc32)cc1
→ ?	-2%	-4%	17%	0%	1%
> COc1ccc(CNc2ncnc3c2cnn3-c2ccc(Cl)cc2)cc1
→ 0%	3%	13%	12%	-3%	-2%
> CCOCCCNC(=O)c1cc2c(=O)n3ccccc3nc2s1
→ -5%	-1%	?	-14%	0%	5%
> Cc1ccc(NC(=O)CN2C(=O)C(c3ccccc3)=NC2(C)C)cc1C
→ -4%	-1%	-15%	-7%	-3%	-11%
> CCc1ccccc1NC(=O)NC(CC)Cn1nnc2ccccc2c1=O (stereo not given)
→ -7%	-1%	-11%	-3%	-1%	-3%
> Cc1ccc(S(=O)(=O)c2cnc(SCC(=O)Nc3cccc(Cl)c3)nc2N)cc1C
→ -17%	-6%	30%	37%[activator]	-2%	-1%
> O=C(NC1(C(F)(F)F)C(=O)Nc2c1c(=O)[nH]c(=O)n2-c1ccc(Cl)cc1)c1ccccc1F (stereo not given)
→ -21%	3%	-13%	-3%	1%	-2%
